Sa RN4220 lethal – kills Staphylococcus aureus RN4220. S. aureus RN4220 growth, OD600, 16 h. actives 0.33% (n = 330,000). inhibition, % (test concentration not listed). AID 1259311;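 active = z-score of -3 or lower and OD600 up to 0.18 on both plates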;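 also: plate controls were untreated cells for no effect and reference antibiotic for full effect; stock transfer was 100 nL into about 80 µL; one replicate is shown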
BJeLR lethal – BJeLR cell viability loss; BJeLR (HRASV12) viability, CellTiter-Glo ATP luminescence, 48 h; reference of the scale not given here; inhibition, % (concentration not given with the values); actives 0.17% (n = 300,000);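 active = replicate mean above 50%; inconclusive = above 50% but judged a plate artefact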;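 also: 50 nL library stock added to about 25 µL; numbers are from one replicate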
ugtP null kill – kills S. aureus RN4220 lacking UgtP; S. aureus RN4220 ugtP deletion, OD600 growth, 16 h; some inactives read as strong as hits; growth inhibition, % (no concentration beside the values); actives 0.54% (n = 330,000); AID 1259309;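 active = z-score under -3 and OD600 up to 0.15 on both plates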;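 also: plate controls were untreated wells for no effect and antibiotic for full effect; wells of about 80 µL received 100 nL stock; the first replicate is given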
PrP 5UTR inh – suppresses PrP 5' UTR mRNA reporter expression. cell-based PrP 5' UTR mRNA reporter, plate reader. inhibition, % (concentration not given with the values). AID 488862. actives 0.35% (n = 340,000);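 active = every replicate at 50% or more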;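 also: 0 = median of the neutral control wells; tested in H4 reporter cells; numbers are from one replicate; inactives centre near -14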
Mtb hypoxia rep – Mtb hypoxia fluorescent reporter inhibition | fluorescence inhibition, % (no concentration beside the values) | M. tuberculosis hypoxia-regulated fluorescent reporter, fluorescence | actives 0.1% (n = 300,000);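 active = 35 to 45% if threefold the growth effect, above 45% if 1.5-fold the growth effect; inactive = the rest, general growth blockers included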;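 also: wells of about 50 µL received 100 nL stock; 0% = vehicle wells and 100% = reference inhibitor wells; whole bacteria with a GFP reporter of the hypoxia response; strong numbers were not always called active; many hits fall short of the cut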
Bead autofluor – flagged as autofluorescent in microsphere protease counterscreen; compound autofluorescence counterscreen, microsphere flow cytometry; stronger effect = higher value; fluorescence intensity (no concentration beside the values); actives 3.1% (n = 360,000); AID 624483;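 active = at least 3 SD above the mean of all compounds, about 16000 in these data; inconclusive = too few beads counted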;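 also: 100 nL of 1 mM stock went into each well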
Mtb hypoxia rep growth – second read-out of Mtb hypoxia rep, no call of its own (marks repeat the call); growth inhibition, %; measured here: M. tuberculosis growth (absorbance);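 0% = vehicle and 100% = reference antibiotic; read after six days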
Numbers without * were called inactive; ? = inconclusive; / = no result given.

SMILES	Sa RN4220 lethal	BJeLR lethal	ugtP null kill	PrP 5UTR inh	Mtb hypoxia rep	Mtb hypoxia rep growth	Bead autofluor
CC1CCC(NC(=O)CCCn2sc3ccccc3c2=O)CC1 (configuration not stated)	-3.9	1	3	-4	1	5	6129
COc1cc(OC)c(C(=O)Nc2cccc3ccccc23)cc1OC	6.2	-4	-4	-25	9	1	3597
Cc1ccc(-c2nn(-c3ccccc3)cc2C(=O)NN2CCN(C)CC2)cc1	4.6	-1	12	-10	9	6	4746
CN1CCN(c2ccc(S(=O)(=O)N3CCCCC3)cn2)CC1	5.0	-1	-5	-4	15	15	2176
CCCCn1c(SCC(=O)N2CC(=O)Nc3ccccc32)nnc1-c1ccoc1C	0.2	-21	2	-21	/	/	3890
CCN(C[C@H]1N[C@@](C)(C(=O)OC)[C@H]2C(=O)N(C)C(=O)[C@@H]12)S(=O)(=O)c1ccc(F)cc1	1.0	/	3	-10	-4	-5	3069
COc1cccc(Oc2cn[nH]c2-c2ccc(O)cc2O)c1	-3.0	4	-11	-25	9	18	6129
COc1ccc(/C(O)=C2/C(=O)C(=O)N(CCN(C)C)C2c2cccnc2)cc1OC (configuration not stated)	-3.7	7	-7	-5	-1	3	2702
CC(=O)OCC1=C(C(=O)O)N2C(=O)[C@@H](NC(=O)Cc3cccs3)[C@H]2SC1	99*	3	99*	-13	/	/	6011
CCCN(CCC)Cc1c(C(=O)NN=Cc2ccc(C)o2)nnn1-c1nonc1N	2.5	/	-8	/	15	8	/
O=C(CCc1nc2ccccc2c(=O)[nH]1)N1CCN(S(=O)(=O)c2cccc([N+](=O)[O-])c2)CC1	-1.4	6	12	-18	2	-2	4258
CSCCCc1cn(C(CO)C(=O)NCCCCCCCCCCC(=O)N2CCNCC2)nn1 (configuration not stated)	3.3	/	0	/	9	4	/
COc1ccc(-n2c(Cn3nnc4ccccc43)n[nH]c2=S)cc1	0.8	-8	-1	-1	-4	-6	7255
CC(=O)N/C(N)=N/c1nc(=O)c2ccccc2s1	0.2	-2	1	-53	3	6	5446
CC(C)NC(=O)NC(=O)COC(=O)c1ccccc1Oc1ccccc1	0.5	1	8	-17	3	6	3810
COc1cccc(C(CC(=O)NCCN2CCOCC2)NS(=O)(=O)c2ccc(C)cc2)c1OC (configuration not stated)	3.7	6	-2	1	/	/	2009
CN1CCN(c2ccc([N+](=O)[O-])c(NN=C3CN4CCC3CC4)c2)CC1	3.7	/	1	/	5	2	/
O=C(COc1ccccc1)Nc1nn[nH]n1	2.3	-12	1	-4	/	/	2870
O=c1[nH]c(C2CCN(S(=O)(=O)c3cccc(C(F)(F)F)c3)CC2)nc2c1nnn2Cc1cccc(F)c1	0.8	-6	6	-26	-7	3	6198
Cc1nn(Cc2c(F)c(F)c(F)c(F)c2F)c(C)c1NC(=O)c1ccc(COc2cc(Cl)ccc2Cl)cc1	2.5	-15	-26	-31	3	8	9506

An excerpt of these results, with each value named:
> COc1cc(OC)c(C(=O)Nc2cccc3ccccc23)cc1OC
- Sa RN4220 lethal: 6.2
- BJeLR lethal: -4
- ugtP null kill: -4
- PrP 5UTR inh: -25
- Mtb hypoxia rep: 9
- Mtb hypoxia rep growth: 1
- Bead autofluor: 3597
> Cc1ccc(-c2nn(-c3ccccc3)cc2C(=O)NN2CCN(C)CC2)cc1
- Sa RN4220 lethal: 4.6
- BJeLR lethal: -1
- ugtP null kill: 12
- PrP 5UTR inh: -10
- Mtb hypoxia rep: 9
- Mtb hypoxia rep growth: 6
- Bead autofluor: 4746

Further structures follow.
SMILES	Sa RN4220 lethal	BJeLR lethal	ugtP null kill	PrP 5UTR inh	Mtb hypoxia rep	Mtb hypoxia rep growth	Bead autofluor
C#CCOCCOCCOCCNc1nc(N2CCN(C(=O)C(Cc3ccc(O)cc3)n3cc(C(N)CC(C)C)nn3)CC2)nc(N2CCN(C(=O)C(C(C)CC)n3cc(C(N)CC(C)C)nn3)CC2)n1 (configuration not stated)	0.1	/	0	/	7	8	/
CCCn1nc(NS(C)(=O)=O)c2cc3cccc(C)c3nc21	10	-13	-15	-23	6	6	8938
Cc1ccc(C)c(S(=O)(=O)Nc2cccc(-n3cnnn3)c2)c1	2.2	8	3	-4	11	3	4599
O=C(NC1CCN(Cc2ccccc2)CC1)c1ccc(Cn2c(=S)[nH]c3ccc(N4CCOCC4)cc3c2=O)cc1	7.9	3	3	-42	0	9	4489
COCCN(CC(=O)NC1CCCCC1)C(=O)c1csnn1	5.5	3	5	-6	2	-10	7951
COc1ccc(CCNC(=O)CNC(=O)c2nn(-c3ccc(OC)c(OC)c3)c(=O)c3ccccc23)cc1OC	2.9	-4	10	-26	8	9	3358
CC1CCCCC1NC(=O)COC(=O)COc1ccc(Cl)cc1 (configuration not stated)	12	1	6	-8	-2	5	3072
COCCn1c(-c2ccsc2)nc2c1c(=O)[nH]c(=O)n2CC(C)C	4.7	-2	6	-16	1	7	?
O=C(C1CC(c2ccc(F)cc2)=NO1)N1CCCc2ccccc21 (configuration not stated)	-2.0	4	5	-11	11	7	3668
CC(C)CC(NC(=O)C1CCC(C)CC1)C(=O)NCc1ccco1 (configuration not stated)	1.2	-12	-6	-16	-3	3	4773
Cc1cc(NC(=O)CSc2nnc(-c3ccccc3F)n2N)no1	6.1	/	10	-21	5	2	3907
CCCCNCCCOc1cccc(Cl)c1	-2.7	2	-4	-46	2	5	9446
O=C(CSCSCC(=O)NCC1CCCO1)NCC1CCCO1 (configuration not stated)	-0.4	3	-4	-15	1	8	12827
CC(=O)c1nnn(-c2ccc(Cl)cc2C#N)c1C	2.9	-1	2	-8	9	4	4782
COc1cc(Br)c(C(C)NC(=O)c2ccccc2)cc1OC (configuration not stated)	-0.3	-12	2	-35	-9	3	21305*
COc1ccc(OCC(=O)N2CCCC2=O)c([N+](=O)[O-])c1	0.8	7	8	-29	6	7	6013
CNC(=S)N(Cc1ccco1)Cc1cc2cc3c(cc2[nH]c1=O)OCCO3	/	-6	/	-28	/	/	2343
CCC(Sc1nc2cc(OC)c(OC)cc2c(=O)n1CCc1ccc(OC)c(OC)c1)C(=O)NCCOC (configuration not stated)	7.6	-5	1	0	-3	13	3279
Cc1sc2nc(CSCC(=O)NC3(C#N)CCCCC3)[nH]c(=O)c2c1C	3.7	/	3	-18	-3	3	5169
CC1Cc2ccccc2N1C(=O)COC(=O)/C=C/c1cccc(F)c1 (configuration not stated)	-1.7	/	-4	-11	-4	1	3634
Cc1ccc([C@@H]2CC=C(C(=O)O)[C@H](c3ccc(Br)cc3)N2S(=O)(=O)c2ccccc2C)cc1	23	/	24	-12	-4	-1	3748
CCOC(=O)c1c(C)[nH]c(C(=O)COC(=O)c2ccccc2NC(=O)c2ccco2)c1C	0.4	-3	-4	-30	6	-4	9951
CCCCn1c(N)c(N(CC(C)C)C(=O)c2ccc(OCc3c(C)noc3C)cc2)c(=O)[nH]c1=O	3.2	10	8	-18	11	3	/
NC(=O)c1ccc(NC(=O)COC(=O)C2(c3ccccc3F)CCCC2)cc1	-3.4	-2	-4	-9	-2	-1	4463
C=C1CSc2nc(=O)c3c4c(sc3n21)CCCC4	-14	3	-7	-9	14	7	2557
CC(C)N1CCN(C(=O)c2cccc(Cl)c2)CC1	/	1	/	-24	/	/	4230
CCc1ccc(-n2c(SCC(=O)N3Cc4ccccc4CC3C(=O)O)nnc2-c2ccncc2)cc1 (configuration not stated)	5.4	-1	22	/	-7	3	4197
CC(C)(C)C(=O)O/N=C(\N)c1ccc(Oc2cc(Cl)cc(Cl)c2)c([N+](=O)[O-])c1	/	0	/	-17	/	/	4308
O=C(CS(=O)(=O)c1ccccc1)Nc1ccc(Cl)cn1	6.0	-6	8	-21	11	3	6529
O=C(CON=Cc1ccccc1OC(F)F)NC1CCCCC1	2.3	/	7	/	6	6	/
CCOc1ccccc1OCCCOc1ccc(C)cc1Br	13	1	16	-28	/	/	3298
Cc1cccc(N(C(=O)Cc2cccs2)C(C(=O)NC2CCCC2)c2ccncc2)c1 (configuration not stated)	3.9	5	8	-28	13	9	3461
CC1CN=C(N(C)C)N1CCC1CCCC1 (configuration not stated)	7.8	/	6	/	8	8	/
CC(=O)c1ccc(NC(=O)c2cc(CC(C)C)nc3ccccc23)cc1	-1.2	4	-3	5	14	7	3209
Cc1ccccc1C=NNC(=O)CSc1nc2ccccc2o1	-1.4	/	4	/	3	4	/
Cc1ccc(C)c(OCCC(=O)Nc2ccccc2C(=O)NC2CC2)c1	-0.2	/	-1	-22	-4	11	3868
COc1cc(SC)ccc1C(=O)NCCOc1c(C)cc(C)cc1C	2.2	-11	-25	-14	1	6	20169*
COc1cccc(-c2nc(S(=O)(=O)c3ccccc3)c(N3CCOCC3)o2)c1	2.7	2	-6	-15	6	1	11436
Cc1c(/C=N/NC(=O)COc2ccccc2[N+](=O)[O-])c2ccccc2n1C	/	1	/	-33	/	/	3575
CCC(=O)Nc1c(S(=O)(=O)c2ccccc2)c2nc3ccccc3nc2n1Cc1ccccc1	-2.0	-3	-20	-19	-5	4	6770
CC1(C#CC[N+]2(C)CCCCC2)CCC2C(O1)c1ccccc1OC2(C)C (configuration not stated)	/	9	/	-16	/	/	5162
CCOC(=O)C1CCN(C(=O)C2CCN(S(=O)(=O)c3c(C)noc3C)CC2)CC1	1.4	-6	5	-3	/	/	3371
O=C(CCCN1C(=O)c2ccccc2C1=O)NC1CCCCCC1	2.6	1	3	-1	/	/	2674
CC1(C)Nc2ccc(O)cc2-c2c1ssc2=S	3.2	6	-6	-12	/	/	2593
COc1cccc(/C=C/C(=O)N2CC(C)OC(C)C2)c1OC (configuration not stated)	4.7	-7	4	-15	9	7	3570
CCOc1ccc(Br)cc1S(=O)(=O)NC1=NCCCCC1	3.3	/	0	-14	6	-1	4233
NNC(=O)C(=O)Nc1ccc(O)cc1	-0.1	-9	1	-45	3	-5	4165

Compounds shown so far that contain an aryl methoxy group:
SMILES	Sa RN4220 lethal	BJeLR lethal	ugtP null kill	PrP 5UTR inh	Mtb hypoxia rep	Mtb hypoxia rep growth	Bead autofluor
COc1cc(OC)c(C(=O)Nc2cccc3ccccc23)cc1OC	6.2	-4	-4	-25	9	1	3597
COc1cccc(Oc2cn[nH]c2-c2ccc(O)cc2O)c1	-3.0	4	-11	-25	9	18	6129
COc1ccc(/C(O)=C2/C(=O)C(=O)N(CCN(C)C)C2c2cccnc2)cc1OC (configuration not stated)	-3.7	7	-7	-5	-1	3	2702
COc1ccc(-n2c(Cn3nnc4ccccc43)n[nH]c2=S)cc1	0.8	-8	-1	-1	-4	-6	7255
COc1cccc(C(CC(=O)NCCN2CCOCC2)NS(=O)(=O)c2ccc(C)cc2)c1OC (configuration not stated)	3.7	6	-2	1	/	/	2009
COc1ccc(CCNC(=O)CNC(=O)c2nn(-c3ccc(OC)c(OC)c3)c(=O)c3ccccc23)cc1OC	2.9	-4	10	-26	8	9	3358
COc1cc(Br)c(C(C)NC(=O)c2ccccc2)cc1OC (configuration not stated)	-0.3	-12	2	-35	-9	3	21305*
COc1ccc(OCC(=O)N2CCCC2=O)c([N+](=O)[O-])c1	0.8	7	8	-29	6	7	6013
CCC(Sc1nc2cc(OC)c(OC)cc2c(=O)n1CCc1ccc(OC)c(OC)c1)C(=O)NCCOC (configuration not stated)	7.6	-5	1	0	-3	13	3279
COc1cc(SC)ccc1C(=O)NCCOc1c(C)cc(C)cc1C	2.2	-11	-25	-14	1	6	20169*
COc1cccc(-c2nc(S(=O)(=O)c3ccccc3)c(N3CCOCC3)o2)c1	2.7	2	-6	-15	6	1	11436
COc1cccc(/C=C/C(=O)N2CC(C)OC(C)C2)c1OC (configuration not stated)	4.7	-7	4	-15	9	7	3570

High-throughput results: PubChem, several laboratories
